RecA intein inh: Mtb RecA intein splicing inhibitors, primary screen, biochemical, fluorescence, HTS | inhibition, %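 (about 9 µM by stock and volumes)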 | cell-free RecA intein splicing | 290,000 compounds, 0.75% hits | Protein RecA (Mycobacterium tuberculosis (strain ATCC 25618 / H37Rv)), P9WHJ3; in the data active = inhibition above about 30%; inconclusive = no clear call, values can overlap the other calls;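 also: 0% = vehicle wells and 100% = reference inhibitor control wells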
Target sequence (P9WHJ3 whole entry, looked up): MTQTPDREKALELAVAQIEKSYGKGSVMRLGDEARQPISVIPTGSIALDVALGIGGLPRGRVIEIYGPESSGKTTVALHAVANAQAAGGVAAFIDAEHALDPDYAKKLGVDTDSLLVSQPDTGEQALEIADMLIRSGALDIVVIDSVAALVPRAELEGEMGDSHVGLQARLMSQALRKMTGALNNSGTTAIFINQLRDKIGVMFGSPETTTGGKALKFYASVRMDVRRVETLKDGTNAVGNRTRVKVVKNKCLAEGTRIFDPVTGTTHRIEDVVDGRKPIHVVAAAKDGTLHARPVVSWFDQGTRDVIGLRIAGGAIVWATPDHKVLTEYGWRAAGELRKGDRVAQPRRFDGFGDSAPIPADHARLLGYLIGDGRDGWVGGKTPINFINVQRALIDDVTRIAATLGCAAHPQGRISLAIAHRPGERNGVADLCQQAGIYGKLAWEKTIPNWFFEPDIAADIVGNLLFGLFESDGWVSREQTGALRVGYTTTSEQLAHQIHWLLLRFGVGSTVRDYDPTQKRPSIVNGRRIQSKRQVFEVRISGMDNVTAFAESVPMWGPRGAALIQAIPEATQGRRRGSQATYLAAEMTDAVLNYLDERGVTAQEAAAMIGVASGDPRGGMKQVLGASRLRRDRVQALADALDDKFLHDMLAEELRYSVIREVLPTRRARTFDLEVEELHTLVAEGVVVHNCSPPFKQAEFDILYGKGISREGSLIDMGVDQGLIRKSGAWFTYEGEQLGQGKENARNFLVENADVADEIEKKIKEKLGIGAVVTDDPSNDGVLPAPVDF
Mtb growth: M. tuberculosis H37Rv growth inhibitors, H37Rv strain (AID 1626) | M. tuberculosis H37Rv growth inhibition; higher % means a stronger effect | 220,000 compounds, 0.95% hits | inhibition, % at 10 µM, or IC50 in µM where a hit was titrated;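 active = confirmed in a dose series; inconclusive = inhibition above 80% but not taken into the dose series; inactive = below 80% or under 30% at every dose of the series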;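 also: bacteria incubated seven days before Alamar blue readout; 0% = bacteria only wells and 100% = bacteria with antibiotic wells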
YopH inh: YopH tyrosine phosphatase inhibitors, primary screen, biochemical, fluorescence Ex485/Em525. inhibition, %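 (about 10 µM by stock and volumes)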. 140,000 compounds, 0.16% hits. YopH tyrosine phosphatase [Yersinia enterocolitica];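 active = inhibition of 50% or more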;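 also: controls were vehicle for no effect and minimum signal wells for full effect; inactives centre near -20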
Arbovirus anti: antivirals against arbovirus infection, primary screen, cell-based, full library, 10K replicate subset | arbovirus infection cell-based antiviral screen | inhibition, % at 10 µM | 200,000 compounds, 0.37% hits | AID 1251, 2008;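 active = inhibition from about 30%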;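 also: bluetongue infection of BSR cells; cell survival read as ATP light after 72 h; 0% = infected wells without compound and 100% = uninfected wells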
Mtb bLac sens: beta-lactam sensitization of Mtb H37Rv, H37Rv; M. tuberculosis H37Rv growth with meropenem, percent inhibition; hits of this screen are not shown here; inhibition, % at 25 µM; 330,000 compounds, 0.27% hits;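 active = about 74% or more and at least 40 points above the plate without the antibiotic, then above 30% in a dose series; inconclusive = first-round hits that could not be retested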;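 also: growth measured after seven days incubation then overnight dye step; 0% = bacteria only wells and 100% = bacteria with antibiotic; twin plates without the antibiotic show which effects depend on it; some results filed as inactive read as strong as hits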
Arbovirus anti repeat: further read-out of Arbovirus anti, marked with its call; inhibition, %; measured here: 10K subset replicate screen; many hits read low in the repeat;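 first of two repeat runs on a subset; 0% = infected and 100% = uninfected wells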
* marks the source's active call; other numbers are inactive results; ? = inconclusive; / = not tested or not shown. Only part of the results is shown; rates above refer to the full screens.

SMILES	RecA intein inh	Mtb growth	YopH inh	Arbovirus anti	Mtb bLac sens	others
O=c1n(S(=O)(=O)c2cccc3cccnc23)c2ccccc2n1S(=O)(=O)c1cccc2cccnc12	/	-1%	-24	11	-3
O=C(NC(=S)N1CCN(C/C=C/c2ccccc2)CC1)c1cccnc1	-0.1	?	/	/	70
Cc1cccn2cc(CCNC(=O)c3cccs3)nc12	-1.8	-4%	/	/	-4
Cc1cc(NC(=O)CSC2=NS(=O)(=O)c3cc(Cl)ccc3N2)no1	-1.1	/	/	/	-7
CCOC(=O)c1c(-c2cccs2)csc1NC(=O)CC(C)C	15	-2%	5	-14	-3
CCC(=O)c1cn(CC(=O)O)c2ccccc12	0.7	-5%	/	-3	-3
COc1cc2nc(N3CCNCC3)nc(N)c2cc1OC	-4.3	-10%	-20	-7	-13
Cc1ccc(C(=O)Nc2oc(-c3ccccc3)cc2C#N)cc1	-5.1	-1%	-13	-2	10
CN(C(=O)Oc1ccc(F)cc1)c1ccccc1	-1.0	/	/	/	-11
CSCCC(Nc1ccc(S(=O)(=O)N2CCOCC2)cc1[N+](=O)[O-])C(=O)OCC(=O)NCC(C)C (centres undefined)	-0.8	-9%	-23	0	-2

Next part, overlapping the part above by 5 compounds.
SMILES	RecA intein inh	Mtb growth	YopH inh	Arbovirus anti	Mtb bLac sens	others
CCC(=O)c1cn(CC(=O)O)c2ccccc12	0.7	-5%	/	-3	-3
COc1cc2nc(N3CCNCC3)nc(N)c2cc1OC	-4.3	-10%	-20	-7	-13
Cc1ccc(C(=O)Nc2oc(-c3ccccc3)cc2C#N)cc1	-5.1	-1%	-13	-2	10
CN(C(=O)Oc1ccc(F)cc1)c1ccccc1	-1.0	/	/	/	-11
CSCCC(Nc1ccc(S(=O)(=O)N2CCOCC2)cc1[N+](=O)[O-])C(=O)OCC(=O)NCC(C)C (centres undefined)	-0.8	-9%	-23	0	-2
COC(=O)c1cc(S(=O)(=O)NCc2cccs2)c[nH]1	-1.5	/	/	/	5
COC(=O)c1ccc(OC)c(Cn2c(=O)n(C)c(=O)c3sccc32)c1	-4.4	/	/	/	-7
COc1ccc(CCN2C(=O)C(O)=C(C(C)=O)C2c2ccccc2OC)cc1OC (centres undefined)	1.3	-11%	-31	4	5
CCOc1ccc(C2OC(=O)Cc3cc(OC)c(OC)cc32)cc1 (centres undefined)	0.7	-17%	-53	4	1
O=C(CSc1nnc(NC(=O)c2ccccc2F)s1)NCc1ccco1	-0.8	/	/	/	8
C/C(=N\NC(=O)C(N)=O)c1ccc(OC(F)F)cc1	-0.6	1%	/	-2	7
Cc1ccc(NC(=O)CN(C)C(=O)CSc2nc3ccccc3c(=O)n2Cc2ccco2)cc1	4.8	7%	-15	-1	4
Cc1ccc(S(=O)(=O)NC2=NCN(C3CCCCC3)CN2)cc1	1.1	/	-20	-1	-7
Cc1ccc2c(c1)C(C)CC(C)(C)N2C(=O)NC1CCCCC1 (centres undefined)	5.5	1%	-4	-1	65
Cc1cc(N2C(=O)C(=O)/C(=C(/O)c3ccc(F)cc3)C2c2ccc(F)cc2)no1 (centres undefined)	-2.6	-10%	-33	21	-9
CN(C)S(=O)(=O)c1cccc(C(=O)NC2CCCc3ccccc32)c1 (centres undefined)	1.8	/	8	-4	-6
COc1ccc(Cl)cc1NC(=O)CCN1C(=O)C2C3C=CC(C4CC34)C2C1=O (centres undefined)	1.2	/	/	/	-5
CCOC(=O)CC(=O)Nc1ccc(Br)cc1C(=O)O	3.1	-6%	-28	2	10	Arbovirus anti repeat=7
Cc1ccc(NC(=O)NNC(=O)c2cc3ccccc3cc2O)c(C)c1	-13	/	/	/	-10
CN(NS(=O)(=O)c1ccc(Br)cc1)c1nc(C(F)(F)F)nc2ccccc12	0.3	/	/	-8	-5
O=[N+]([O-])c1ccc(N=Nc2ncc[nH]2)cc1	5.5	/	/	/	99
COc1ccc(OC)c(NC(=O)CC2SC(=NCc3ccccc3)NC2=O)c1 (centres undefined)	0.7	6%	/	-6	-5
CCC(=O)N1N=C(c2ccc(C)cc2)CC1c1ccco1 (centres undefined)	/	1%	/	/	-11
COc1ccc(N2C(=O)C3CCCN3C2c2ccccc2OC)cc1 (centres undefined)	4.3	-3%	-43	7	-5	Arbovirus anti repeat=8
CC(=O)Nc1ccccc1C(=O)C(=O)Nc1ccc(C)c(C)c1	1.8	85%	21	-3	77
CC(=O)NC1(c2nnnn2CCOC(=O)Nc2ccc(Cl)cc2)CCCCC1	2.1	14%	-13	1	-8
COc1cccc(C2C3=C(N=C4SCC(=O)N42)c2ccccc2CC3)c1OC (centres undefined)	/	-9%	-87	0	36	Arbovirus anti repeat=10
CN(C)S(=O)(=O)c1cccc(NC(=O)c2ccncc2)c1	-0.7	-6%	-13	8	?
C[C@]12CC[C@@H]3c4cc(O)c(O)cc4CC[C@H]3[C@@H]1CC[C@@H]2O	-3.4	8%	/	-6	-9
COc1ccc(C2(CNC(=O)c3ccccc3)CCCC2)cc1OC	0.6	/	/	/	3
CC1CN(C2CCN(S(=O)(=O)c3ccc4ccccc4c3)CC2)CC(C)O1 (centres undefined)	-2.1	-15%	-27	-6	4
Cc1onc(-c2c(F)cccc2Cl)c1C(=O)N1C=CC(C(F)(F)Cl)=NCC1	-2.7	-3%	-33	7	-21
CCCn1c(N)c(Br)c(=O)[nH]c1=O	2.1	-20%	-5	3	3
Cc1ccc(-n2[nH]c(C)c(/C=N/n3c(C)nc4ccccc4c3=O)c2=O)cc1	3.9	-12%	-47	-19	88
CCn1c(SCC(=O)N/N=C/c2ccccc2OCC(=O)O)nnc1-c1ccc(C(C)(C)C)cc1	-0.1	-12%	/	/	2
CN(C)CCCNC(=O)C1CCNCC1	-2.7	-5%	-38	0	5
CC(C)CNC(=O)C1C2C=CC(C2)C1C(=O)O (centres undefined)	-4.4	-2%	-86	9	83
Cc1ccc(S(=O)(=O)N(C)c2ccc(OCC(=O)Nc3nc4c(ccc5ccccc54)s3)cc2)cc1	1.2	9%	-16	13	?
CCNC(=O)C1CCCN1S(=O)(=O)c1ccc2ccccc2c1 (centres undefined)	0.8	/	/	/	-4
CCNC(=O)CC1C(=O)N(c2ccc(F)cc2)C(=O)N1CCC(C)C (centres undefined)	1.3	-3%	8	5	-1
O=C(CSc1nnc2c(Cl)cc(Cl)cn12)N1CCN(S(=O)(=O)c2ccccc2)CC1	0.9	1%	-8	4	1
COc1ccc(-n2c(SCC(=O)Nc3ccccc3OC)nc(O)cc2=O)cc1	3.9	3%	/	/	7
CC(=O)[C@@H]1[C@@H](C)N(Cc2ccccc2)C(=O)N[C@H]1c1ccccc1	0.7	5%	/	/	-2
Cn1c(-c2ccc(Cl)cc2)cnc1N	6.8	-2%	-41	-7	8
COc1ccc(CCN2CC(C(=O)Nc3ccccc3F)CC2=O)cc1OC (centres undefined)	-0.7	/	/	/	-3
COc1ccc(-n2c(-c3ccccc3)nnc2-c2ccc(Cl)cc2)cc1	1.0	-2%	-27	-7	-3
Cn1c2c(c(=O)n(C)c1=O)C1c3cc(Cl)ccc3OCC1CO2 (centres undefined)	3.7	-1%	10	3	-7
CCCCc1cc(=O)oc2c3c(cc(OCC(=O)NCCCO)c12)OC(C)(C)CC3	0.8	/	/	/	-4
Cc1ccc(S(=O)(=O)N2CCC(C(=O)OC(C)C(=O)NCc3ccc4c(c3)OCO4)CC2)cc1 (centres undefined)	-0.6	0%	-19	4	7
COc1ccc2ccccc2c1CN1CCN(C)CC1	0.6	-2%	-40	4	4
C=CCN(C(=O)CNC(=O)c1cccs1)C(C(=O)NC1CCCCC1)c1cccnc1 (centres undefined)	-1.0	22%	/	7	-4
CCSc1nnc(NC(=O)COc2ccc3ccccc3c2)s1	1.4	-10%	-12	2	-3
CSCCC(NS(=O)(=O)c1ccc2ccccc2c1)C(=O)OCC(=O)c1ccc(C(C)C)cc1 (centres undefined)	2.4	2%	1	8	-6
COc1ccc(S(=O)(=O)N2CCOCC2)cc1NC(=O)CN1CCC(Cc2ccccc2)CC1	3.1	6%	-8	4	-2
O=S(=O)(Nc1ccc2c(c1)OCCO2)c1cccc(F)c1	-0.9	/	/	/	3

Next results follow.
SMILES	RecA intein inh	Mtb growth	YopH inh	Arbovirus anti	Mtb bLac sens	others
O=C(CNC(=O)c1ccncc1)N/N=C/c1ccccc1[N+](=O)[O-]	-4.4	3%	/	2	-11
COC(=O)c1ccc(C(=O)OC)c(NC(=O)CSc2ccccn2)c1	-0.2	4%	-38	-8	62
O=C(Nc1ccc(Br)cc1)c1ccc(-n2cnnn2)cc1	0.9	/	/	/	0
O=C(Nc1ccc2c(c1)CCCN2C(=O)c1ccccc1)c1ccccc1	1.8	/	/	/	2
Cc1ccccc1CCN(C(=O)Cn1nnc2ccccc21)C(C(=O)NC(C)(C)C)c1ccsc1 (centres undefined)	-1.2	-2%	-10	11	5
CN(CCc1ccccc1)c1ccc([N+](=O)[O-])cn1	4.2	/	/	/	3
COc1ccc(-n2c(=S)[nH]c3cc(C(=O)NCc4ccc(F)cc4)ccc3c2=O)c(OC)c1	5.7	/	/	/	15
CC(C)(C)c1cc(NC(=O)Nc2ccc(Cl)cc2Cl)no1	-1.0	5%	/	/	-6
O=C(N/N=C/c1ccc(-c2ccc([N+](=O)[O-])cc2)o1)[C@H]1C[C@@H]1c1ccccc1	-12	?	/	/	89
CCN(C(=O)COC(=O)c1ccc(S(=O)(=O)N2CCCc3ccccc32)cc1)C1CCS(=O)(=O)C1 (centres undefined)	-0.8	-2%	/	-7	-3
O=C(Cn1cnc2sc(-c3ccccc3)cc2c1=O)N1CCOCC1	-2.3	-4%	-4	1	-5
CC(C(=O)OCC(=O)c1cccc([N+](=O)[O-])c1)N1C(=O)C2C3CCC(C3)C2C1=O (centres undefined)	-0.6	4%	-26	5	-1
Cc1ccc(NC(=S)N(CCCN(C)C)Cc2cc3cc4c(cc3[nH]c2=O)OCO4)cc1	-2.3	2%	/	-1	-4
Cc1ccc(S(=O)(=O)N2CCCN(C)CC2)cc1	-0.5	/	/	/	-4
COc1ccc(/C=C(\NC(=O)c2ccccc2)C(=O)NCc2ccco2)cc1OC	0.7	/	/	/	-1
Cc1csc(NC(=O)CCC(=O)N(CC(=O)NC2CCCC2)c2ccccc2)n1	0.6	/	/	/	2
CCOC(=O)CSc1n[nH]c(NC(=O)c2ccc(F)cc2)n1	/	5%	-19	3	1
CN(C)CCCNC(=S)NCc1ccc(Cl)cc1	-0.7	-2%	-10	-8	2
CC(C)(C)NC(=O)COC(=O)c1cc(Br)ccc1Cl	0.9	12µM*	-35	1	97
Cc1cccc(S(=O)(=O)Nc2nc3ccccc3nc2Nc2ccc3c(c2)OCO3)c1	-5.5	0%	-4	17	3

Part of the list above in order of SMILES length, rising.
SMILES	RecA intein inh	Mtb growth	YopH inh	Arbovirus anti	Mtb bLac sens	others
Cc1ccc(S(=O)(=O)N2CCCN(C)CC2)cc1	-0.5	/	/	/	-4
CCOC(=O)CSc1n[nH]c(NC(=O)c2ccc(F)cc2)n1	/	5%	-19	3	1
Cc1csc(NC(=O)CCC(=O)N(CC(=O)NC2CCCC2)c2ccccc2)n1	0.6	/	/	/	2
Cc1cccc(S(=O)(=O)Nc2nc3ccccc3nc2Nc2ccc3c(c2)OCO3)c1	-5.5	0%	-4	17	3
Cc1ccc(NC(=S)N(CCCN(C)C)Cc2cc3cc4c(cc3[nH]c2=O)OCO4)cc1	-2.3	2%	/	-1	-4

Other compounds:
SMILES	RecA intein inh	Mtb growth	YopH inh	Arbovirus anti	Mtb bLac sens	others
Cc1ccc(C(=O)N/N=C\c2ccc[nH]2)cc1[N+](=O)[O-]	3.0	-4%	-34	-2	57
N#Cc1ccc(NCC(=O)Nc2ccc3c(c2)OCCO3)cc1	1.7	5%	/	9	-4
CCCCOc1ccc(Br)cc1CSC(=N)N	7.8	3%	-15	-37	/
Cc1cccc(NC(=S)NCc2cccs2)c1	2.0	-1%	/	-1	-9

Screening data from PubChem.
